# D2 ag – human D2 receptor agonism in beta-arrestin assay; actives 0.084% (n = 360,000); DiscoveRx PathHunter D2 beta-arrestin, luminescence, 90 min; 100% = 57 uM dopamine signal; activation, % (concentration not given with the values); in the data active = activation above about 40%; inconclusive = about 15% to 40%; inactive = below about 15%; note: compound concentration not given in the record; the text of the record calls up to 30% inactive
# Target sequence (P14416 whole entry, looked up): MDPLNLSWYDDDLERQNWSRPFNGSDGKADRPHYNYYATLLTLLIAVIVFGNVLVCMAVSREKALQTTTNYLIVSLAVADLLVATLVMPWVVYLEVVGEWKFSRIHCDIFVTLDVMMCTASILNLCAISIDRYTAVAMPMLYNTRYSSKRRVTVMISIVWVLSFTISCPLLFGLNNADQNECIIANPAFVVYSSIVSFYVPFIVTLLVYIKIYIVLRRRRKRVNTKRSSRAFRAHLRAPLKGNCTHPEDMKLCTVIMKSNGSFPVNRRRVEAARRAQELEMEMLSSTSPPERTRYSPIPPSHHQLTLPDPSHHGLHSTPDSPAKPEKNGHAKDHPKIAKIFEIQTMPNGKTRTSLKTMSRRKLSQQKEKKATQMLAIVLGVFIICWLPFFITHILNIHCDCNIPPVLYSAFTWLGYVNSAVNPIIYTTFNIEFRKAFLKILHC
#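 DiscoveRx PathHunter D2 beta-arrestin cells (2,100/well) attached overnight, then compound-stimulated 90 min at 37 C in HBSS/10 mM HEPES/0.1% Tween-20 buffer; beta-galactosidase complementation read by luminescence after 1 h at ambient temperature. Dopamine 57 uM final (EC100) as control.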
# TRPML1 inh – blocks the human TRPML1 channel | activity change, negative = inhibition, % (test concentration not listed) | actives 0.02% (n = 390,000) | TRPML1-inducible cells, Ca2+ dye fluorescence, FDSS; stronger effect = lower value; inhibition of EC80 agonist-evoked calcium signal | Q9GZU1; in the data active means activity change below about -50%; inconclusive means about -30% to -50%; inactive means above about -30%;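 note: stimulus is agonist 54-4 at its EC80 concentration; % is set by controls: 0 for no effect and ±100 for the full control effect; compound concentration not given in the record; the text of the record puts the active cut at -80%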
# Target sequence (Q9GZU1 whole entry, looked up): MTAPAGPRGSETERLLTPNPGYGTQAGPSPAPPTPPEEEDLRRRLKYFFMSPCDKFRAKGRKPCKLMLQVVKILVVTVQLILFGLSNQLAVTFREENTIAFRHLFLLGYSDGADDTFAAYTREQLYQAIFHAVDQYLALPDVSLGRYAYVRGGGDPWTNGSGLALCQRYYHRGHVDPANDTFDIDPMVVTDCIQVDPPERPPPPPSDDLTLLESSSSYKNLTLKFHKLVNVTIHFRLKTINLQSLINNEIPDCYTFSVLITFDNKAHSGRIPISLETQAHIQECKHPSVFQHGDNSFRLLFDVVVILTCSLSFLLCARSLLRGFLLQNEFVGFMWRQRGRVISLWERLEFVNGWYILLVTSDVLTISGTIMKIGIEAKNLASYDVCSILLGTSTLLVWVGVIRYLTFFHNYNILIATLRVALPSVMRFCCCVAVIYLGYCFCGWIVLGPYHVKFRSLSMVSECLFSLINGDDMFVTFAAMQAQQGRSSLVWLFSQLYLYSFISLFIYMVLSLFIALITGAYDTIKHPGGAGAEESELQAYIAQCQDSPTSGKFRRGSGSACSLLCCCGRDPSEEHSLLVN
#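 TRPML1-DL cells, Tet-induced overnight (~16 h, 37 °C) at 1,500 cells/well, were loaded with Ca8 no-wash dye plus quencher for 45-90 min at room temperature. Compounds were pinned during FDSS kinetic reading; agonist 54-4 at EC80 (4 uM final) then added.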
# Six1-Eya2 inh – blocks human Six1 binding to Eya2 | actives 0.56% (n = 360,000) | AID 651725 | AlphaScreen GST-Six1/His-Eya2 binding, biochemical; stronger effect = lower value; control for the full effect not named in the record | Q15475+O00167 | activity change, % (concentration not given with the values); in the data active = activity change below about -65%; inconclusive = about -30% to -65%; inactive = above about -30%; note: % is set by controls: 0 for no effect and ±100 for the full control effect
#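 Six1/Eya2 binding was read as AlphaScreen signal after compounds were pinned into GST-Six1 plus His-tagged Eya2 (5X stock 250/500 nM) in pH 8.0 Tris/NaCl/TCEP buffer, beads added, then incubated 1 h, 37 C, dark.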
# TRPML1 ag – activates the human TRPML1 channel; AID 624414; TRPML1-expressing cells, Ca2+ dye fluorescence, FDSS; host cell line not named in the record; reference of the full effect not given here; Q9GZU1; activation, % (test concentration not listed); actives 0.12% (n = 410,000); in the data active = activation above about 50%; inconclusive = about 30% to 50%; inactive = below about 30%; note: 0% is about no effect; the text of the record puts the active cut at 80%
#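 TRPML1-DL cells, Tet-induced overnight (~16 h, 37 degrees C), loaded 45-90 min at room temperature with Ca8 no-wash calcium dye plus quencher. FDSS fluorescence: 10 s baseline, compound pin-transfer, 110 s agonist read, then EC80 54-4 (4uM final) and 110 s antagonist read.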
# CtBP-E1A blk – CtBP/E1A binding inhibition; AlphaScreen GST-E1A/His-CtBP binding, 1536-well; stronger effect = lower value; control for the full effect not named in the record; actives 0.49% (n = 340,000); AID 651724; activity change, % (test concentration not listed); in the data active means activity change below about -65%; inconclusive means about -30% to -65%; inactive means above about -30%; note: % is set by controls: 0 for no effect and ±100 for the full control effect; compound concentration not given in the record
#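 AlphaScreen with 125 nM GST-E1A and 125 nM His-CtBP (5X stocks) in Tris pH 8.0, 300 mM NaCl, BSA, Tween 20, TCEP. Compounds preincubated 2 h at 37 deg C, then glutathione donor/nickel acceptor beads added for 1 h at 37 deg C in dark.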
# PINK1 expr mod – modulators of PINK1 expression | PINK1 immunofluorescence, high-content cytometry, 24 h | Potency, µM (highest dose often 76.6 µM), inactives show top-dose activation (PINK1 increase), most hits filed as activators | actives 0.2% (n = 410,000); active = well fitted activation curve with a large enough effect; inconclusive = small, poorly fitted or top-dose-only effect; inactive = flat fitted curve, though single readings scatter; cell line not stated here;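 note: potency is the fitted concentration of half-maximal effect; % of control where 0% means no effect; nearly all actives have a fitted effect of over 65% in size; a mitochondrial uncoupler was the plate control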
#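 A stable cell line was treated with compounds at 5 concentrations for 24 hours, with CCCP as control. PINK1 levels and mitochondrial localization were measured by immunofluorescence with mitochondrial, cell and nuclear markers after fixation, read by laser-scanning cytometry.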
# Starred values were filed as active, the others as inactive; u = inconclusive; x = not tested or not shown; & = joins results of further samples; [ ] = dose if it differs, or a comment.
SMILES,D2 ag,TRPML1 inh,Six1-Eya2 inh,TRPML1 ag,CtBP-E1A blk,PINK1 expr mod
Fc1ccc(-c2nc3c(-c4ccccc4)cnn3cc2CCN2CCOCC2)cc1,-5.9,0,21,-1.0,0,2.9%
Cc1c(C)c2ccc(OCC(=O)NC(Cc3ccc(Cl)cc3)C(=O)O)cc2oc1=O (configuration not stated),-1.3,x,-7,x,-8,-0.5%
C[C@H]1CN([C@@H](C)CO)C(=O)Cc2cc(NC(=O)CCC(F)(F)F)ccc2O[C@H]1CN(C)CC1CC1,0.6,0,3,-0.5,4,-1.3%
CCCOC(=O)Nc1cc(OC)c(Cl)cc1OC,-0.8,2,1,0.2,3,-0.3%
O=C(c1cc(-c2cccc(Br)c2)nc2ccccc12)N1CCCC1,-0.4,2,-8,1.0,-24,-1.4%
C[n+]1ccc(/C=C/c2ccccc2O)c2ccccc21,-2.7,-6,1,0.4,19,-1.4%
COc1ccc(N2CCN(C(=O)CSc3nnc(NC(=O)C4CCC4)s3)CC2)cc1,-1.9,7,2,-1.2,-12,0.0%
Cc1ccc(S(=O)(=O)N2[C@@H](c3ccccc3F)C(C(=O)O)=CC[C@H]2c2ccc(Cl)c(Cl)c2)cc1,-0.8,-9,-4,-0.4,2,0.8%
COc1ccc(C2=NOC(C(=O)Nc3cc(Br)ccc3O)C2)cc1OC (configuration not stated),1.3,-1,-11,1.2,-24,-4.5%[38.3 µM]
COCCn1c(NC(=S)NC(=O)C23CC4CC(CC(C4)C2)C3)cc(=O)[nH]c1=O,-4.7,x,2,x,4,2.3%
O=C(O)c1cn(-c2ccc(F)cc2)c2cc(N3CCNCC3)c(F)cc2c1=O,-2.5,0,2,0.1,-3,1.6%
CC(C)Cc1ccc(S(=O)(=O)N2CCN(C(=O)c3ccco3)CC2)cc1,-1.0,-4,0,0.1,-6,x
Cc1ccc2c(C)c(C(=O)NCc3ccc(S(N)(=O)=O)cc3)oc2c1C,5.1,-8,-7,2.3,x,3.2%
O=C(C[n+]1cccc2ccccc21)c1ccc(Cl)cc1,-0.4,28,-9,1.2,-14,-0.3%
Cn1c(SCC(=O)NCCc2ccccc2)nc2c([nH]c3ccccc32)c1=O,-3.2,-1,1,-0.5,7,5.0%
C=CCNC(=S)Nc1ccc(OC)c(S(=O)(=O)N2CCOCC2)c1,-0.1,-20,5,-0.1,-3,2.9%
Cc1nc(C)c(C(=O)Nc2ccc(C)c(F)c2)o1,-0.5,-4,-5,-0.4,-9,1.1%[38.3 µM]
COc1ccccc1Nc1c2c(nc3ccc(NC(=O)c4cccc(F)c4)cc13)CCCC2,x,45,x,2.7,x,-2.6%
Cc1ccc(S(=O)(=O)Nn2c(C)nnc2-n2nc(C)cc2C)cc1,-2.3,-3,-25,0.3,1,-0.2%
COc1ccc(N(CN2C(=O)C3C4C=CC(C4)C3C2=O)C(=O)c2ccco2)cc1 (configuration not stated),-4.2,6,-3,-0.8,3,-0.1%
Oc1ccc(C=NC2CCCCC2)c(O)c1,4.2,1,-1,0.0,3,1.2%
O=C(COC(=O)c1cccc(S(=O)(=O)N2CCc3ccccc3C2)c1)NCc1ccco1,-0.7,29,-4,-0.6,-2,-1.8%
CC(C)(C)C1CCC(=NNC(=O)CN(c2ccccc2)S(=O)(=O)c2ccccc2[N+](=O)[O-])CC1 (configuration not stated),-1.5,2,1,-0.4,0,0.5%
COc1ccccc1Cc1c(-c2ccc(F)cc2)nc2c(C)cc(Br)cn12,-5.0,-4,-6,0.8,2,16%
O=C(NCc1ccccc1CN1CCCCC1)c1ccc(Cl)cc1N1CCCC1=O,-4.3,-3,3,-0.1,0,-2.5%
CC1CCN(C(=O)c2ccc3c(c2NCCO)C(=O)c2ccccc2C3=O)CC1,-5.9,-4,u,2.3,u,-0.1%
O=C(Cn1c(=O)c(=O)n(Cc2ccccc2)c2ccc(Cl)cc21)NCC1CCCO1 (configuration not stated),4.2,27,5,1.4,12,0.5%
O=C(NCc1ccccc1)c1nc2c(nnn2Cc2cccc(Cl)c2)c(=O)[nH]1,-2.8,-10,-1,0.8,6,3.0%[38.3 µM]
O=c1/c(=C\c2ccc(O)cc2)sc2n1C(c1ccccc1)C(c1ccccc1)=NN=2 (configuration not stated),-4.2,-3,-23,5.6,-15,1.9%
CC(=O)Nc1ccc(S(=O)(=O)N2CCC(NC(C)=O)(c3cccc(F)c3)CC2)cc1,-3.8,6,0,-0.7,-2,-1.5%

# Some of these compounds in order of molar mass, smallest number first.
SMILES,D2 ag,TRPML1 inh,Six1-Eya2 inh,TRPML1 ag,CtBP-E1A blk,PINK1 expr mod
O=C(NCc1ccccc1)c1nc2c(nnn2Cc2cccc(Cl)c2)c(=O)[nH]1,-2.8,-10,-1,0.8,6,3.0%[38.3 µM]
O=c1/c(=C\c2ccc(O)cc2)sc2n1C(c1ccccc1)C(c1ccccc1)=NN=2 (configuration not stated),-4.2,-3,-23,5.6,-15,1.9%
O=C(NCc1ccccc1CN1CCCCC1)c1ccc(Cl)cc1N1CCCC1=O,-4.3,-3,3,-0.1,0,-2.5%
O=C(Cn1c(=O)c(=O)n(Cc2ccccc2)c2ccc(Cl)cc21)NCC1CCCO1 (configuration not stated),4.2,27,5,1.4,12,0.5%

# New compounds follow:
SMILES,D2 ag,TRPML1 inh,Six1-Eya2 inh,TRPML1 ag,CtBP-E1A blk,PINK1 expr mod
Cc1ccc2oc(C(=O)Nc3ccc(S(=O)(=O)N4CCCC(C)C4)cc3)cc(=O)c2c1 (configuration not stated),x,2,x,-0.5,x,1.8%
COC(=O)CC1C(=O)NCCN1C(=O)CSc1nnc(Nc2ccc(OC)cc2)s1 (configuration not stated),-2.9,-7,-12,-0.5,-7,-0.7%
O=C1NC[C@@H](CCCCN2CCN(CCc3ccccc3)C(=O)C2=O)N(CCC2CCCCC2)C1=O,x,x,24,-0.7,24,1.9%
CCCc1c(C(=O)N/N=C/c2cccnc2)nnn1-c1nonc1N,-3.9,28,4,-0.9,6,1.1%
Nc1cccnc1Oc1ccc(F)cc1,-1.9,5,-7,0.0,-4,-0.5%
C=C(C)COc1ccc(-c2[nH]ncc2-c2ccccc2OC)c(O)c1,0.4,3,-3,0.4,-2,-0.2%
Cc1nc(-c2ccc(S(=O)(=O)NCc3cccnc3)s2)cs1,-3.8,50,-8,-0.3,x,1.4%
CC(=O)NC(c1ccc(F)c(F)c1)c1nc(-c2ccccc2C)cs1 (configuration not stated),1.9,37,0,-0.7,2,0.4%
O=C(O)/C=C\C(=O)NCc1ccccc1,0.3,12,13,0.6,6,-2.0%
COc1cccc(C(=O)NNC(=O)c2ccccc2)c1,2.5,-3,0,-0.6,x,-0.7%
Cc1cccc(CNC(=O)c2cc3cc(S(=O)(=O)N4CCCCC4)ccc3n2C)c1,x,11,x,3.1,x,2.0%
CCOc1ccccc1NC(=O)CN(c1cc(C)cc(C)c1)S(=O)(=O)c1c(C)noc1C,-4.4,49,3,0.2,2,1.3%
Cc1ccccc1-c1nc(CS(=O)(=O)CC(=O)Nc2cc(Cl)cc(Cl)c2)c(C)o1,x,4,x,0.0,x,u
COC(=O)c1[nH]c2cccc(OC)c2c1NC(=O)CN1CC2(C)CC1CC(C)(C)C2 (configuration not stated),-3.1,-4,2,-0.3,2,-0.5%
CCCC(=O)N1c2ccc(-c3csc(N)n3)cc2CC1C (configuration not stated),2.9,3,-11,0.9,-14,-2.2%
O=C1NC2=C(CCc3ccccc32)C(c2ccc(Br)cc2)N1 (configuration not stated),12,6,0,2.3,2,10%
CC(=O)NC(C)(c1ccccc1)c1nc(/C=C/c2ccccc2)cs1 (configuration not stated),1.2,x,-3,-0.8,-3,2.3%
COc1ccc(CCNC(=O)CSc2nc3ccsc3c(=O)n2Cc2ccccn2)cc1OC,-2.7,-7,-9,-0.8,0,0.9%
COc1cccc(-n2c(SCc3ccc(F)cc3)nc3c([nH]c4ccccc43)c2=O)c1,x,13,x,1.3,x,0.2%
O=C(NC(Cc1c[nH]c2ccccc12)C(=O)N/N=C/c1ccc(Cl)cc1)c1cccs1 (configuration not stated),-2.6,2,-9,-0.5,x,-0.2%
C/C(=N\Nc1nc(N2CCOCC2)nc(N2CCOCC2)n1)c1cccc([N+](=O)[O-])c1,-1.2,-4,7,-0.8,-6,-0.2%
O=C(c1cccnc1)N1CCN(c2ccc(Cl)cc2)CC1,6.6,-4,2,0.4,24,14%
C=CCN(c1ccccc1)S(=O)(=O)c1cccc(C(=O)NCC(c2ccc(F)cc2)N2CCOCC2)c1 (configuration not stated),0.5,2,-3,1.3,10,1.4%
CN(CC(=O)NCC1CCCO1)S(=O)(=O)c1ccc(Br)cc1 (configuration not stated),-6.3,1,-2,-0.3,13,0.1%
COc1ccnc(N=CNOCc2ccc(F)cc2Cl)c1C#N,-2.7,-12,1,0.5,-9,16%
CC(=O)Nc1ccc(NC(=O)c2c(C)nc3ccccn23)cc1,0.1,-8,-1,-0.3,9,-5.0%[38.3 µM]
C[C@H](NC(=O)c1nc[nH]c1C(=O)NCCCCCN)C(=O)OC(C)(C)C,-0.4,-13,-1,0.6,x,0.1%
Cc1ccc(C)c(NC(=O)COC(=O)c2cccc(S(=O)(=O)N3CCCC3)c2)c1,-2.5,11,-2,-1.2,-2,3.4%
CC(=O)Nc1ccc(NC(=O)/C=C/c2cccc(C(F)(F)F)c2)cc1,-6.2,-2,6,-0.5,5,7.3%
CC1(C)CC(=O)C2=C(C1)N(CC1CCCO1)C(=O)C2(NC(=O)c1cccnc1)C(F)(F)F (configuration not stated),0.8,-8,4,-0.2,-2,0.3%[38.3 µM]
COCCNCc1ccccc1[N+](=O)[O-],-2.9,-12,3,-0.3,2,0.3%
COc1ccccc1/C=C/c1nc(S(=O)(=O)c2ccccc2)c(N2CCC(C(N)=O)CC2)o1,1.6,-1,0,-1.0,-6,2.9%
CCOC(=O)C(NC(C)=O)(OCc1ccc(F)cc1)C(F)(F)F (configuration not stated),-11,-7,9,0.8,14,6.4%
C=CCn1c(=O)c2c3c(sc2n2c(Nc4ccccc4)nnc12)CCCC3,0.8,20,-7,1.4,-8,-1.6%
O=C(COc1ccc2c3c(c(=O)oc2c1)CCC3)NCCCN1CCOCC1,-1.6,26,u,0.0,-18,0.8%
CC1=CC(=O)c2ccccc2C1=O,3.0&13,4&23,0&3,-0.3&-0.4,0&-14,25%&-0.2%
O=C(c1ccc(S(=O)(=O)N2CCOCC2)cc1)N1CCN=C1SCc1cccnc1,-0.3,-12,2,-0.3,4,-0.5%
O=C(COC(=O)CCc1c[nH]c2ccccc12)NCc1ccc(Cl)cc1,-3.4,9,-7,0.3,1,0.9%
CC(=O)c1c(C)oc2c(Br)cc(NS(=O)(=O)c3ccc(Br)cc3)cc12,x,-7,x,1.9,x,1.9%
COc1ccc(C(=O)Nc2ccc(N3CCCC3)cc2)cc1,2.0,4,-15,-0.6,-14,1.0%
O=C(CSc1nnc(COc2ccc(Cl)cc2Cl)o1)Nc1ccccn1,7.7,-6,19,0.2,-17,0.2%

# Screening data: PubChem BioAssay, National Center for Advancing Translational Sciences (NCATS)
